# ID4 binder – ID4 (human) binding; small molecule microarray, Flag-ID4 binding, fluorescence F/B; calls only; actives 1.2% (n = 31,000); AID 624137;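 active means spot signal over background at p below 0.07 in all four prints; compounds were printed on slides so no solution concentration is given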;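 further: a binder raises fluorescence above local background on the spot; about 2 pmol printed per array spot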
# Target sequence (P47928 whole entry, looked up): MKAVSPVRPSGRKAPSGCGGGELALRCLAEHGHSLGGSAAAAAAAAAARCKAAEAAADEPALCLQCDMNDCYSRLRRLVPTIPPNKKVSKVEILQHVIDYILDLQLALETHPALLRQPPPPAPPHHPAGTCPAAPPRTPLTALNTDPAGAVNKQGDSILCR
# Calls only; i = inactive. Not all compounds are listed (hit frequency here may not be typical).
Molecule | ID4 binder
Cc1ccc(-c2cnc3c(c2)C(=O)N([C@@H](C)CO)C[C@H](C)[C@@H](CN(C)CC2CCCC2)O3)cc1 | i
CSc1ncc(Cl)c(C(=O)Nc2sc3c(c2C(=O)NCC2CCCO2)CCC3)n1 (stereo not drawn) | i
Cc1cc(C)c(NC(=O)C(CCS(C)(=O)=O)N2C(=O)c3ccc(Br)cc3C2=O)c(C)c1 (stereo not drawn) | i
CC(C)CC#Cc1cnc2c(c1)C(=O)N([C@@H](C)CO)C[C@@H](C)[C@H](CN(C)Cc1ccc(F)cc1)O2 | i
C=C1C(=O)O[C@@H]2[C@H]3C(=C)[C@@H](O[C@@H]4O[C@H](CO)[C@@H](OC(=O)/C=C/c5ccc(O)c(O)c5)[C@H](O)[C@H]4O)C[C@H]3C(=C)C[C@@H](O)[C@@H]12 | i
CN(C)c1ccc2c(c1)[C@@H]1C[C@H](CC(=O)NCc3ccc(Oc4ccccc4)cc3)O[C@H](CO)[C@@H]1O2 | i
CCn1c(CNC(=O)c2ccc(OC)c(OC)c2)n[nH]c1=S | i
O=C(Nc1sc2c(c1C(=O)NCc1cccnc1)CCCC2)c1cccs1 | i
O=S(=O)(NC1c2cccc3cccc(c23)C1Sc1nnnn1-c1ccccc1)c1ccccc1 (stereo not drawn) | i
Cc1cc(CSc2cc(C)c(Cl)cc2C)no1 | i
Cc1ccc(S(=O)(=O)C2(C(=O)N(C)C3CCCCC3)CC2)cc1 | i
N#Cc1ccccc1CSc1nc(N2CCCCC2)nc(N2CCCCC2)n1 | i
CCCC#Cc1cnc2c(c1)C(=O)N([C@@H](C)CO)C[C@H](C)[C@H](CN(C)Cc1ccccc1F)O2 | i
COc1ccccc1-c1cnc2c(c1)C(=O)N([C@H](C)CO)C[C@@H](C)[C@@H](CN(C)Cc1cccnc1)O2 | i
CC(C(=O)Nc1cccc(Br)c1)N(c1ccc(Cl)cc1)S(C)(=O)=O (stereo not drawn) | i
COc1ccc(C)cc1NC(=S)NC12CN3CN(CN(C3)C1)C2 | i
C[C@H](NC(=O)C[C@@H]1C=C[C@H](NC(=O)C2CC2)[C@H](CO)O1)c1ccccc1 | i
COc1ccc(-c2ccc(CCC(=O)O)n2-c2ccc(N(C)C)cc2)cc1 | i
C[C@@H]1CN([C@@H](C)CO)C(=O)c2cc(-c3ccncc3)cnc2O[C@H]1CN(C)Cc1ccc(F)cc1 | i
Cc1ccc(S(=O)(=O)NC2(C(F)(F)F)C(=O)N(Cc3ccco3)C3=C2C(=O)CC(C)(C)C3)cc1 (stereo not drawn) | i
Cc1ccc(OCC(=O)NC(=S)Nc2cc(-c3nc4ncccc4o3)ccc2Cl)cc1 | i
C[C@@H]1CN([C@@H](C)CO)S(=O)(=O)c2ccc(C#Cc3ccccc3F)cc2O[C@@H]1CN(C)C | i
Cn1nc(CC(=O)Nc2cccc(O)c2)c2ccccc2c1=O | i
CS(=O)(=O)N(CC(=O)Nc1ccc(F)cc1)c1ccc(Cl)c(Cl)c1 | i
COc1ccc(S(=O)(=O)N(C)C[C@H]2Oc3ncc(-c4ccncc4)cc3C(=O)N([C@H](C)CO)C[C@H]2C)cc1 | i
O=C(CN(C1CCCCC1)S(=O)(=O)c1ccc(Cl)cc1)Nc1ccccc1C(F)(F)F | i
O=C(C[C@@H]1CC[C@@H](NC(=O)c2ccncc2)[C@H](CO)O1)NCC1CC1 | i
COc1ccc(NC(=O)N(C)C[C@H]2Oc3cc(-c4cccc(C(=O)N(C)C)c4)ccc3S(=O)(=O)N([C@@H](C)CO)C[C@H]2C)cc1 | i
CC(=O)c1cccc(NC(=O)CN(c2ccc(Br)c(C)c2)S(C)(=O)=O)c1 | i
CS(=O)(=O)N(CC(=O)Nc1cccc(Br)c1)c1cccc2ccccc12 | i
CC(=O)N1CCN(C(=S)c2ccc(-c3ccc(C)cc3)o2)CC1 | i
CC1(C)CC(n2c(NCCO)nc3c(c2=O)C2(CCCCC2)Cc2ccccc2-3)CCO1 (stereo not drawn) | i
CC(=O)Nc1cccc(-c2nnc(SCC(=O)N3CCN(c4ccccc4)CC3)n2C)c1 | i
C=CC[C@]12N=C(c3ccc(OCCCO)cc3)O[C@H]1c1ccccc1CN(Cc1ccccc1)C2=O | i
CC(=O)O[C@@H]1[C@@H](OC(=O)/C=C/c2ccccc2)[C@H](C)O[C@@H](O[C@H]2[C@@H]3C=CO[C@@H](O[C@@H]4O[C@H](CO)[C@@H](O)[C@H](O)[C@H]4O)[C@@H]3[C@@]3(CO)O[C@@H]23)[C@@H]1OC(C)=O | i
O=C(C[C@@H]1C[C@H]2c3cc(NC(=O)CC4CC4)ccc3O[C@H]2[C@H](CO)O1)NCc1ccc(Cl)cc1 | i
COC(=O)c1sccc1NC(=O)Cn1cnc2c1c(=O)n(C)c(=O)n2C | i
O=C(Cn1c(S(=O)(=O)Cc2ccccc2)nc2ccccc21)N1CCOCC1 | i
O=C(C[C@H]1CC[C@@H](NC(=O)Nc2ccc(F)cc2)[C@H](CO)O1)NCc1cccc(F)c1 | i
CCOC(=O)c1ccc(NC(=O)Cn2c(C(F)(F)F)nc3ccccc32)cc1 | i
Fc1ccccc1-c1n[nH]c(=S)n1CCCN1CCOCC1 | i
CC(C)CN1C(=O)[C@@]2(Cc3ccccc31)c1ccccc1C(=O)N(Cc1ccccc1Cl)[C@H]2c1ccc(CO)cc1 | i
Cc1nnc(SCC(=O)Nc2cc(Cl)ccc2Cl)s1 | i
Cn1c(SCC(=O)Nc2ccc(F)c(Cl)c2)nnc1-c1ccccc1Cl | i
O=C(CNS(=O)(=O)c1ccc(Cl)cc1)Nc1cccc([N+](=O)[O-])c1 | i
COc1ccc(CCNc2nc(-c3ccncc3)cs2)cc1OC | i
CNC[C@H]1Oc2cc(-c3ccc(C#N)cc3)ccc2S(=O)(=O)N([C@H](C)CO)C[C@@H]1C | i
CC(=O)c1ccc(NC(=O)c2ccc(CSc3nc4ccc([N+](=O)[O-])cc4s3)cc2)cc1 | i
Cc1ccc(OCC(=O)Nc2ccccc2C#N)cc1C | i
CCC(=O)N(C)C[C@H]1Oc2ncc(-c3ccccc3C)cc2C(=O)N([C@H](C)CO)C[C@@H]1C | i

# (further entries)
Molecule | ID4 binder
O=C(C[C@@H]1C=C[C@@H](NC(=O)C2CCC2)[C@H](CO)O1)NCc1ccccc1Cl | i
COc1ccc(N(C(=O)c2ccccc2)S(=O)(=O)c2cccc([N+](=O)[O-])c2)cc1 | i
CC(C(=O)Nc1ccc(Oc2ccccc2)cc1)N(c1ccc(Cl)cc1)S(C)(=O)=O (stereo not drawn) | i
CC(C)NC(=O)N(C)C[C@@H]1Oc2ncc(C#Cc3ccc(F)cc3)cc2C(=O)N([C@H](C)CO)C[C@H]1C | i
CCCNC(=O)C[C@H]1C[C@H]2c3cc(NC(=O)CN(C)C)ccc3O[C@H]2[C@@H](CO)O1 | i
Cc1ccccc1-c1cnc2c(c1)C(=O)N([C@H](C)CO)C[C@H](C)[C@@H](CN(C)CC1CCOCC1)O2 | i
C[C@H](CO)N1C[C@H](C)[C@H](CN(C)CC2CCOCC2)Oc2ncc(Br)cc2C1=O | i
O=C(CCn1cnc2ccccc2c1=O)Nc1ccc(F)cc1 | i
CSC1=NC=C(C#N)C2=NC(c3ccc(Cl)cc3)NN12 (stereo not drawn) | i
Cc1nc(CSc2ncnc3sc4c(c23)CCC4)cs1 | i

# Reprinted from the results shown for reference:
Molecule | ID4 binder
O=C(C[C@@H]1C=C[C@@H](NC(=O)C2CCC2)[C@H](CO)O1)NCc1ccccc1Cl | i
COc1ccc(N(C(=O)c2ccccc2)S(=O)(=O)c2cccc([N+](=O)[O-])c2)cc1 | i
CC(C(=O)Nc1ccc(Oc2ccccc2)cc1)N(c1ccc(Cl)cc1)S(C)(=O)=O (stereo not drawn) | i
CC(C)NC(=O)N(C)C[C@@H]1Oc2ncc(C#Cc3ccc(F)cc3)cc2C(=O)N([C@H](C)CO)C[C@H]1C | i
CCCNC(=O)C[C@H]1C[C@H]2c3cc(NC(=O)CN(C)C)ccc3O[C@H]2[C@@H](CO)O1 | i
Cc1ccccc1-c1cnc2c(c1)C(=O)N([C@H](C)CO)C[C@H](C)[C@@H](CN(C)CC1CCOCC1)O2 | i

# The list goes on.
Molecule | ID4 binder
Cc1cccc(OCC(=O)Nc2cc(C(F)(F)F)ccc2N2CCOCC2)c1 | i
O=C(C[C@H]1CC[C@@H](NS(=O)(=O)c2ccccc2F)[C@@H](CO)O1)NCCCN1CCOCC1 | i
O=C(C[C@H]1C[C@H]2c3cc(NC(=O)c4ccc5c(c4)OCO5)ccc3O[C@H]2[C@@H](CO)O1)NCc1ccc(Cl)cc1 | i
COC(=O)COc1cccc(NC(=O)c2ccccc2I)c1 | i
C/C=C/c1ccc2c(c1)O[C@@H](CN(C)CC1CC1)[C@@H](C)CN([C@H](C)CO)S2(=O)=O | i
CCc1ccc(OCCSc2nc(C)cc(=O)[nH]2)cc1 | i
C[C@H](CO)N1C[C@H](C)[C@H](CN(C)CC2CC2)Oc2ccc(NC(=O)C3CC3)cc2C1=O | i
CCC(=O)N(C)C[C@@H]1Oc2ncc(-c3ccccc3C)cc2C(=O)N([C@@H](C)CO)C[C@H]1C | i
Cn1c(CSc2ccnc3cc(Cl)ccc23)nnc1SCC(=O)c1ccc(Cl)s1 | i
C[C@H]1CN([C@@H](C)CO)S(=O)(=O)c2ccc(C3=CCCC3)cc2O[C@@H]1CN(C)Cc1cccc(C(=O)O)c1 | i
COc1ccc(OC)c(NC(=O)Cn2cc(C(=O)C3CCCCC3)c3ccccc32)c1 | i
C[C@@H]1CN([C@H](C)CO)S(=O)(=O)c2ccc(Br)cc2O[C@@H]1CN(C)Cc1ccccc1 | i
Cc1ccc(OCC(=O)Nc2ccccc2C(=O)Nc2ccccc2)c(Br)c1 | i
CCn1c(SCC(=O)c2ccc(Cl)cc2Cl)nnc1-c1cccnc1 | i
CS(=O)(=O)N(CC(=O)Nc1ccccc1)c1cccc(F)c1 | i
CC(=O)N(C)C[C@H]1OCc2ccccc2-c2ccccc2C(=O)N([C@H](C)CO)C[C@H]1C | i
C[C@@H]1CN([C@@H](C)CO)S(=O)(=O)c2ccc(C3=CCCCC3)cc2O[C@H]1CN(C)C | i
COc1ccc(NC(=O)C(C)Oc2cc(C)c(Cl)c(C)c2)c([N+](=O)[O-])c1 (stereo not drawn) | i
COCC#Cc1ccc2c(c1)O[C@@H](CN(C)CC1CC1)[C@@H](C)CN([C@@H](C)CO)S2(=O)=O | i
COc1ccc(N(CC(=O)N2CCN(c3ccccc3F)CC2)S(C)(=O)=O)c(OC)c1 | i
COc1cc(S(=O)(=O)NC2CC(C)(C)NC(C)(C)C2)c(OC)cc1Cl | i
O=S(=O)(c1ccc(-c2cc(C(F)(F)F)on2)s1)N1CCc2c([nH]c3ccc(F)cc23)C1 | i
COC(=O)c1ccccc1NC(=O)COc1ccc([N+](=O)[O-])c(C)c1 | i
O=C(N[C@@H]1CC[C@H](CC(=O)N2CCN(c3ccccc3)CC2)O[C@@H]1CO)c1ccccc1 | i
CCN(Cc1ccccc1)S(=O)(=O)c1nc2nc(C)c(C)c(C)n2n1 | i
CO[C@@H](CN(C)S(=O)(=O)c1ccc(F)cc1)[C@@H](C)CN(C(=O)Nc1ccccc1F)[C@@H](C)CO | i
COc1cc([N+](=O)[O-])ccc1NC(=O)CCN1C(=O)C2C3C=CC(C4CC34)C2C1=O (stereo not drawn) | i
C=CCNC(=O)[C@H]1[C@@H]2C(=O)O[C@@H](c3ccccc3)[C@@H](c3ccccc3)N2[C@@H](c2ccc(O)cc2)[C@]12C(=O)N(C(=O)OCCOC)c1ccc(C#CC3(O)CCCCCC3)cc12 | i
Cc1ccc2oc(-c3ccc(C)c(NC(=O)COc4ccc(Br)cc4)c3)nc2c1 | i
O=C(C[C@@H]1CC[C@H](NC(=O)C2CCC2)[C@@H](CO)O1)NCc1ccccc1Cl | i
C[C@H]1CN([C@@H](C)CO)C(=O)c2cc(NC(=O)C3CC3)ccc2O[C@@H]1CN(C)Cc1ccccc1 | i
Cc1nnc(SCC(=O)Nc2ccc([N+](=O)[O-])cc2O)s1 | i
C[C@H](CO)N1C[C@H](C)[C@@H](CN(C)CC2CCCC2)Oc2ncc(C#Cc3ccncc3)cc2C1=O | i
C[C@H](CO)N1C[C@H](C)[C@@H](CN(C)C)Oc2ncc(C3=CCCC3)cc2C1=O | i
O=C(NCc1ccccn1)C(=O)Nc1ccccc1F | i
CC(C)C#Cc1ccc2c(c1)O[C@@H](CN(C)CC1CCOCC1)[C@H](C)CN([C@H](C)CO)S2(=O)=O | i
C[C@@H]1CN([C@@H](C)CO)C(=O)c2cc(C#CC3CC3)cnc2O[C@@H]1CN(C)C(=O)C1CCCCC1 | i
C[C@H]1CN([C@@H](C)CO)C(=O)Cc2cc(N(C)C)ccc2O[C@H]1CN(C)CC1CC1 | i
CC(C)CC#Cc1cnc2c(c1)C(=O)N([C@H](C)CO)C[C@@H](C)[C@@H](CN(C)C(=O)c1ccc(F)cc1)O2 | i
O=C(C[C@@H]1CC[C@H](NC(=O)C2CC2)[C@@H](CO)O1)Nc1ccccc1 | i

# Arranged by SMILES length (lowest first): some entries from above.
Molecule | ID4 binder
O=C(NCc1ccccn1)C(=O)Nc1ccccc1F | i
Cc1nnc(SCC(=O)Nc2ccc([N+](=O)[O-])cc2O)s1 | i
C[C@H](CO)N1C[C@H](C)[C@@H](CN(C)CC2CCCC2)Oc2ncc(C#Cc3ccncc3)cc2C1=O | i

# (more compounds)
Molecule | ID4 binder
C[C@H]1CN([C@@H](C)CO)S(=O)(=O)c2ccc(C3=CCCC3)cc2O[C@H]1CN(C)C(=O)Nc1ccc2c(c1)OCO2 | i
COc1cc2c(cc1NC(=O)C(C)Oc1cccc(Cl)c1)oc1ccccc12 (stereo not drawn) | i
Cc1ccc(Cl)cc1NC(=O)C1CC=CCC1C(=O)O (stereo not drawn) | i
C[C@@H]1CN([C@H](C)CO)C(=O)c2cc(-c3ccncc3)cnc2O[C@H]1CN(C)C | i
